# MLL AF4-AF9 inh: inhibitors of human MLL-AF4/AF9 interaction; AID 651704; inhibition, % at 10 µM; 350,000 compounds, 0.47% hits; AlphaScreen, biotin-AF4 peptide binding to FLAG-AF9;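 active = every replicate reaching a set inhibition limit, whatever the replicate mean, cut at about 25% in these data; inconclusive = mean inhibition reaches that limit but some replicates miss it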;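 note: 0% = plate neutral control median and 100% = total signal loss; the record names both 10 and 1 µM as test concentration; the first replicate is given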
# Target sequence (P42568 whole entry, looked up): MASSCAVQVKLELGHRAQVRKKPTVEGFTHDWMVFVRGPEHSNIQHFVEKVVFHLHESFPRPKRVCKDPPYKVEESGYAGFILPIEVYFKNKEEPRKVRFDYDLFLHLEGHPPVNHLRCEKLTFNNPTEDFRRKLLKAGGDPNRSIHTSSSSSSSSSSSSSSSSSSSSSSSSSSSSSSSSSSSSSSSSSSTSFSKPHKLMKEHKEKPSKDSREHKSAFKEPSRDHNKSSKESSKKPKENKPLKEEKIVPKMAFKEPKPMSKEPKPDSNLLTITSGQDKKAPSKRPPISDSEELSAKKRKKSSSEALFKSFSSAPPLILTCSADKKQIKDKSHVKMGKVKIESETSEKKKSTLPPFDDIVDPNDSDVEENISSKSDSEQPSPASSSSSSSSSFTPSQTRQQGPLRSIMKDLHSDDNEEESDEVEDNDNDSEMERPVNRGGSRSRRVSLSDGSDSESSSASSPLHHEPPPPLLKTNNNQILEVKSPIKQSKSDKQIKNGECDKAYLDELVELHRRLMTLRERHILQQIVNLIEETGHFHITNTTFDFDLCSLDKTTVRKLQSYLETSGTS
# T cruzi inh: T. cruzi replication inhibition | T. cruzi beta-gal in NIH3T3, luminescence, 90 h | inhibition, % (test concentration not listed) | 300,000 compounds, 1.4% hits | AID 1885;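 active = mean inhibition across valid replicates above about 55%, limit read from the data; inconclusive = mean below that limit but half or more replicates reach it; inactive = mean below it, under half of replicates reach it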;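 note: signal also drops with host cell toxicity which is not excluded here; 0% = plate median of DMSO wells and 100% = zero luminescence signal; higher percent means less beta-gal luminescence so fewer parasites; stock transfer was 50 nL into about 50 µL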
# Calb FLC: affects C. albicans growth with fluconazole; C. albicans CaCi-2 (fluconazole-resistant clinical isolate) + fluconazole, Alamar Blue growth, 48 h; growth inhibition, % (test concentration not listed); 300,000 compounds, 0.57% hits; AID 1979;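 active = most replicates above 75%; inconclusive = exactly half above 75%; inactive = most below 75%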;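 note: all wells also contain fluconazole at 8 µg/ml as a sub-toxic cotreatment; 0% = median of DMSO wells and 100% = median of geldanamycin control wells; wells of about 8 µL received 7.5 nL stock; the first replicate is given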
# Beta apoptosis: blocks beta cell apoptosis; INS-1E cytokine-induced death, ATP luminescence, 48 h; percent of positive-control rescue, neutral wells zero; protection from apoptosis, % (test concentration not listed); 300,000 compounds, 0.8% hits; AID 435005;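 active = all replicates at 75% or more, or half of them and the mean; inconclusive = half reach 75% but not the mean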;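 note: 0% = cytokine-treated negative control wells and 100% = positive control rescue; higher means more ATP so stronger rescue from cytokine killing; wells of about 40 µL received 100 nL stock; the first replicate is given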
# Bfl-1 A1 inh: inhibitors of the anti-apoptotic protein A1, read as caspase activation. MEF A1-2A-BIM cells, Caspase-Glo 3/7 luminescence, 3 h; percent of clofoctol response, vehicle zero. caspase activation, % (test concentration not listed). 330,000 compounds, 0.066% hits;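 active = over half of replicate activation scores above 10%, or exactly half above 10 with the replicate mean above 10; inconclusive = replicate mean below 10 yet half the replicates above 10; inactive = over half of replicates below 10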;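 note: wells of about 30 µL received 50 nL stock; many hits fall short of the cut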
# RanGTP-Impb inh: inhibitors of RanGTP-importin-beta interaction, primary screen, biochemical, FRET, CFP-Ran, YFP-importin-beta, homogeneous | 300,000 compounds, 1.1% hits | cell-free CFP-Ran/YFP-importin-beta FRET ratio | AID 2216 | inhibition, % (concentration not given with the values);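 active = most replicates above 15%; inconclusive = exactly half above 15%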;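 note: 0% = DMSO wells and 100% = Ran loaded with GDP instead of GTP; wells of about 40 µL received 100 nL stock; the first replicate is given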
# Vif TR-FRET: HIV-1 Vif–A3G interaction blockers – biochemical, TR-FRET, GST-Vif 1-94, biotin-A3G peptide, dose response retest, primary screen (AID 1117319). TR-FRET GST-Vif / biotin-A3G peptide binding; higher % means a stronger effect; test concentration not given here; strong numbers were not always called active. inhibition, %; hits with a dose series show IC50 in µM. 260,000 compounds, 0.57% hits;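 active = above the screen mean plus three standard deviations and confirmed in dose response; inconclusive = results disagree or hit not tested in dose response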;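 note: Vif residues 1-94 fused to GST binding biotinylated APOBEC3G peptide 110-148; 0% = full assay without inhibitor and 100% = GST in place of GST-Vif; retest series ran down from 100 µM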
# LANA-H2A inh: blocks KSHV LANA binding to histone H2A/H2B. Q9QR71. cell-free LANA-H2A/H2B peptide, fluorescence polarization. inhibition, % (concentration not given with the values). 320,000 compounds, 0.6% hits. AID 2629; in the data active = inhibition mostly above about 10%, no sharp cut-off; inactive = mostly below about 6.7%;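 note: stock transfer was 7.5 nL into about 10 µL; 0% = median of vehicle wells and 100% = median of positive control wells; one replicate is shown; the record names a cut of 25% in any replicate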
# * hit, by the source's call; ? = inconclusive; / = no result given; & = joins results of further samples.
SMILES,MLL AF4-AF9 inh,T cruzi inh,Calb FLC,Beta apoptosis,Bfl-1 A1 inh,RanGTP-Impb inh,Vif TR-FRET,LANA-H2A inh
Cc1ccc(NC(=O)C2CC(=O)n3ncnc3N2)cc1C (stereo not given),-0.1,1,-4,-6,0.9,-1.0,/,-1.6
O=C1C2C3C=CC(C4CC34)C2C(=O)N1/N=C/c1ccc(-c2cccc([N+](=O)[O-])c2)o1 (stereo not given),/,8,-4,-6,0.0,0.6,4%,3.0
COc1ccc(-c2oc(=O)c3cc(OC)c(OC)cc3c2C#CCCCO)cc1,1.3,/,/,7,-1.9,/,/,-1.5
COc1ccc(/C=N/n2cnnc2SCc2ccc(OC)cc2)cc1,/,5,31,-8,-0.1,1.3,10%,0.6
COCCn1c(SCC(=O)N2CCCCCC2)nc2c([nH]c3ccccc32)c1=O,0.9,41,3,-11,0.1,-0.3,-10%,3.7
Cc1ccc(SCC(=O)OCC(=O)N(CCC#N)c2ccccc2)cc1,0.8,/,/,1,-1.1,/,-7%,0.2
CCOc1cccc(C(=O)Nc2cccnc2)c1,/,-6,-9,-6,0.7,-0.5,-6%,4.8
Cc1ccc2c(C)c(C(=O)NCC(C)(C)N3CCOCC3)oc2c1C,-1.3,27,1,-7,-1.2,2.7,/,7.7
CC(SCc1ccccc1)C(=O)Nc1ccccc1 (stereo not given),0.9,-2,-40,-2,0.0,0.1,/,4.3
COc1ccc(C(=O)N2CCN(CCNC(=O)C(=O)Nc3ccc(F)cc3)CC2)cc1,-5.3,8,-4,-3,0.4,3.8,-4%,3.0
COCCOC(=O)C1=C(C)NC2=C(C(=O)CCC2)C1c1ccc2c(c1)OCO2 (stereo not given),3.8,4,4,-1,0.6,-0.1,0%,-4.6
CCN1CCN(C(c2cccs2)C(C)NS(=O)(=O)c2ccc(Br)cc2)CC1 (stereo not given),/,8,-21,-5,0.1,?,-1%,0.1
CCc1cc(=O)oc2cc(OCC(=O)NCCCN3CCOCC3)c(Cl)cc12,-3.5,19,-1,11,0.8,-0.8,-2%,0.5
CCCC(C(=O)NC(C)(C)C)N(CC1CCCO1)C(=O)CNS(=O)(=O)c1ccc(F)cc1 (stereo not given),0.0,0,3,2,0.0,3.3,31%,-5.0
Cc1ccccc1CS(=O)(=O)c1ccc(C(=O)N2CCC(C)CC2)cc1[N+](=O)[O-],-0.2,-15,-27,1,1.8,5.9,-2%,0.5
NS(=O)(=O)c1ccc(NC(=O)CSc2cn[nH]n2)cc1,5.5,-1,-2,-2,1.3,-0.8,/,3.7
O=CNC1CCCc2c1[nH]c1ccc(Cl)cc21 (stereo not given),7.0,12,-9,7,0.6,7.0,0%,-0.1
CC(=O)Nc1ccc(S(=O)(=O)N(C)CC(=O)OC(C)C(=O)NC2CCCCC2)cc1 (stereo not given),-1.4,-2,-2,-3,1.0,2.5,-12%,1.4
C/C(=N/NC(=O)c1ccc2c(c1)OCCO2)c1ccc([N+](=O)[O-])cc1,-8.2,-10,7,-8,1.0,1.8,11%,1.6
Cc1cccc(NC(=O)c2sc3nc(-c4ccccc4)cn3c2C)n1,-40,-17,-18,13,-1.8,3.4,-12%,1.3
COc1cccc(CNc2nc(-c3cccnc3)nc3ccccc23)c1,-3.7,42,0,7,-0.3,-3.5,-1%,-6.8
CCCCn1c(SCC(=O)NCc2ccc(OC)c(C(=O)O)c2)nc2cc(S(N)(=O)=O)ccc21,-3.5,-9,-2,-6,0.7,-3.0,0%,1.6
O=C(COC(=O)c1cc(C(F)(F)F)cc(C(F)(F)F)c1)NCc1ccc(Cl)cc1,1.6,-4,8,-1,-0.5,-1.4,0%,1.9
CCCCNC(=S)NCc1ccc2[nH]c3c(c2c1)CCCC3,9.1,24,1,-4,0.8,5.4,5%,-2.0
O=C(Nc1cccc(-c2nc3ncccc3o2)c1)c1ccccc1,-0.9,60*,40,10,0.8,-2.6,-18%,-2.0
CCOc1ccc2[nH]c3c(N4CCN(C(=O)c5ccco5)CC4)ncnc3c2c1,-0.3,26,-1,1,-0.4,-4.8,-6%,-3.4
Cc1ccc(C(=O)N(CC(=O)NC2CCCCC2)c2ccccc2C)s1,-7.0,4,1,7,?,0.5,-2%,0.9
CCCCNc1c(-c2ccc(OC)c(SC(C)CC)c2)nc2ccc(C)cn12 (stereo not given),11&17,/,/,120*,-2.2,/,/,8.0
CCCS(=O)(=O)N1CCN(C(=O)COc2ccc(OC)cc2)CC1,/,-2,17,3,0.8,-4.8,?,3.5
CC(C)CCNC(=O)c1cc(-c2ccncc2)nc2ccc(S(=O)(=O)N3CCOCC3)cc12,/,-3,-5,-3,3.3,2.7,-11%,2.7
COCC(C)n1c(SCC(=O)NC(=O)NC2CCCC2)nc2ccccc2c1=O (stereo not given),3.6,/,/,-10,-0.3,/,/,6.3
CN(CCOc1ccc(Cl)cc1)C(=O)c1cc(S(=O)(=O)N2CCOCC2)ccc1N1CCCC1,5.2,/,/,6,0.0,/,1%,2.8
CN(CC(=O)N1CCN(C2CCCCC2)CC1)S(=O)(=O)c1cccc2nsnc12,/,10,3,7,-0.4,2.6,9%&2%,3.7
CCOC(=O)C1=C2c3cc(OC)c(OC)cc3CC(C)(C)N2C(=O)C1=O,3.7,-1,1,-9,1.7,-1.4,3%,0.0
CCc1cc(C(=O)O)c(NC(=O)/C=C/c2ccc(OC)cc2)s1,1.5,-14,25,2,0.7,4.0,-4%,-1.1
CC(=O)N1CCCc2cc(S(=O)(=O)NC(C(=O)NC3CCCCC3)C(C)C)ccc21 (stereo not given),-19,-10,3,-8,0.6,4.8,1%,-5.1
O=C(O)Cc1ccc(NC(=O)c2ccc3c(c2)C(=O)N(Cc2ccco2)C3=O)cc1,-2.0,-5,-4,-1,1.2,-1.1,/,-7.2
CC(=O)NC1C(=O)N=C(SCC(=O)Nc2ccc(C(F)(F)F)cc2Cl)NC1=O (stereo not given),-6.9,-2,-16,-7,0.2,-0.3,/,-3.3
O=C1c2ccccc2C(=O)N1c1ccc(Cl)cn1,/,9,-9,5,0.6,3.3,2%,0.8
N#Cc1ccc(CN2CCN(C(=O)c3ccc(S(=O)(=O)NCc4ccco4)cc3)CC2)cc1,5.7,/,/,1,-0.4,/,7%,2.7

# Just Vif TR-FRET, Calb FLC and Beta apoptosis (two entries from above):
mol,Vif TR-FRET,Calb FLC,Beta apoptosis
CC(=O)NC1C(=O)N=C(SCC(=O)Nc2ccc(C(F)(F)F)cc2Cl)NC1=O (stereo not given),/,-16,-7
O=C1c2ccccc2C(=O)N1c1ccc(Cl)cn1,2%,-9,5

# (continued)
SMILES,MLL AF4-AF9 inh,T cruzi inh,Calb FLC,Beta apoptosis,Bfl-1 A1 inh,RanGTP-Impb inh,Vif TR-FRET,LANA-H2A inh
CC(C)c1ccc(OC(=O)NCCO)cc1,/,-4,-10,0,0.1,-0.1,2%,-5.8
C/C(=N\O)c1ccc2c(c1)OCCO2,-0.2,-7,-3,3,-0.5,-1.7,24%,4.8
COCCNC(=O)COC(=O)c1ccc(OCC(=O)Nc2ccccc2OC)c(OC)c1,-15,-4,1,-5,-0.2,5.5,-11%,0.1
COCCCNCCOCCOc1ccc(Cl)cc1C(C)(C)C,6.1,41,-27,6,0.0,-1.6,/,-1.2
Nc1nnc(C(F)(F)F)s1,-2.5,-14,-2,-2,0.4,4.7,9%,-9.1
COCCN(C(=O)CCC(=O)Nc1cc(C)on1)C(C(=O)NC(C)(C)C)c1ccc(OC)cc1 (stereo not given),2.4,-19,8,-4,0.4,1.8,2%,-6.6
Cc1cc(=O)oc(C)c1C(=O)OCC(=O)c1ccc(Cl)c(Cl)c1,/,6,-12,-2,0.1,0.0,29%,-8.9
CCCn1c(N)c(C(=O)COC(=O)CCNS(=O)(=O)c2ccccc2F)c(=O)[nH]c1=O,-7.0,0,3,-4,?,/,9%,-0.4
COc1ccc(CN(C(=O)c2cc3ccccc3oc2=O)C2CCS(=O)(=O)C2)cc1 (stereo not given),6.3,-17,-23,-1,-0.2,9.9,-6%,-1.3
O=C(CN(c1ccc(Cl)c(Cl)c1)S(=O)(=O)c1ccccc1)N1CCc2ccccc2C1,/,45,3,-9,-0.1,4.9,?,-1.7
Cc1cccc(NC(=O)CN(C)C(=O)C2CC2)c1C,-1.2,/,/,-6,0.4,/,-8%,-81
CN(Cc1ccccc1)c1nc(N)nc(Cl)c1C=O,-1.6,-1,-9,-4,0.6,-1.7,-6%,-0.2
CC(C)c1ccccc1NS(=O)(=O)N(C)C,0.0,-12,-1,-1,-0.1,5.3,-5%,0.8
CC(C)(C#N)c1cc(Cn2cncn2)cc(C(C)(C)C#N)c1,/,13,-4,/,1.4,-1.2,-6%,-0.8
CC(NC(=O)C1CCC(C(C)(C)C)CC1)C(c1ccccc1)N1CCOCC1 (stereo not given),0.6,9,35,6,-0.1,-2.5,/,2.5
C=CCn1c(SCC(=O)Nc2sccc2C(N)=O)nc2sc(C)c(C)c2c1=O,/,32,34,/,-0.8,-0.9,-9%&-16%,2.1
COc1ccc(OCc2n[nH]c(=S)n2-c2ccc(C)cc2)cc1,-5.0,13,0,16,0.2,1.6,11%,-1.2
CCOC(=O)c1c(-c2ccccc2)cn2c(C)cc(C)nc12,-4.5,9,4,/,-7.1,-1.3,1%,3.2
O=C(OC(C(=O)NCc1ccccc1)c1ccccc1)c1ccco1 (stereo not given),-0.2,-6,2,-3,0.4,4.1,?,-0.9
CCOc1nc(SCCOc2ccc(Cl)cc2Cl)nc(N(C)C)n1,/,32,-3,4,0.5,0.6,-9%,-1.7
CCC(C)(C)n1nnnc1C(C(C)C)N1CCN(C(=O)c2ccco2)CC1 (stereo not given),0.3,13,-11,4,-0.5,1.2,/,-10
O=C1C2C(c3cccc(/C=C/c4ccccc4)c3)CC=CC2C(c2ccc(C(F)(F)F)cc2)N1Cc1ccccc1 (stereo not given),-1.7,15,-8,16,0.9,2.2,/,1.0
COc1ccc(NC2CCCN(C(=O)c3ccc(C)nc3)C2)cc1 (stereo not given),1.2,3,-4,1,0.4,-0.1,/,1.8
Cc1nc2ccc(NC(=O)c3ccc([N+](=O)[O-])cc3)cc2s1,/,-16,-2,-3,-0.6,2.2,/,-3.0
O=C(O)C1CCCCC1C(=O)NCCCN1CCCC1=O (stereo not given),2.2,2,-6,-1,-0.6,3.0,/,1.5
CN1CCS/C1=C/C=C1\SC(=S)N(CC(=O)O)C1=O,-1.0,16,0,-3,-0.2,-11,/,-149
Cc1ccc(S(=O)(=O)N2CCCCC2)cc1C(=O)NCc1ccncc1,0.9,-2,-4,3,0.9,-5.9,/,5.0
CCOc1cc(C(=O)N/N=C(\C)Cc2ccc(OC)cc2)cc(OCC)c1OCC,-10,-12,14,-2,-0.6,2.2,9%,1.3
Cc1cccc(NC(=O)Cn2nc(-c3ccco3)ccc2=O)c1C,0.4,-5,-6,-4,-1.0,2.9,/,-5.7
C=CCOc1ccc(CN(C)C(=O)C2CCCO2)cc1 (stereo not given),1.1,-7,-4,3,-0.5,2.3,/,0.9
Cc1c(NC(=O)COC(=O)C(c2ccc(Cl)cc2)C(C)C)c(=O)n(-c2ccccc2)n1C (stereo not given),/,-6,5,-4,-0.4,1.6,3%,-1.6
